Compound activity as filed in PubChem.
TsaE inh: displaces an ADP probe from E. coli YjeE (TsaE); P0AF67; purified YjeE, fluorescence polarisation of a bound ADP probe; Potency, µM; hit rate 0.05% among 71,000; AID 605; active = well fitted falling curve; inconclusive = weaker or top-dose-only fall, or a rising curve; inactive = flat or poorly fitted curve;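 further: top concentration of the series not given in the record; excess ADP was the control for the full effect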
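Purified YjeE (10 uM) with BODIPY Texas Red-labeled ADP probe (2 uM); compounds pin-transferred, 15 min at room temperature. Binding inhibition read as decreased fluorescence polarization; ADP titration as control.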
Bst PK mod: pyruvate kinase (B. stearothermophilus) modulation | Potency, µM | hit rate 1.2% among 51,000 | partly purified Bacillus stearothermophilus pyruvate kinase, luminescence ATP production; ribose 5-phosphate activator present at AC10 | AID 361; in the data active means potency below about 11 µM; inconclusive means mostly about 12 µM to 25 µM; inactive means weaker than that;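 the screen sought inhibitors and activators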;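 further: potency means the concentration at half of the fitted maximal effect; scaled between full activation by ribose 5 phosphate and full inhibition by luteolin; about four in five hits inhibit and the cells do not say which; series up to 57 µM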
The depositor's hits bear a star; i = inactive; ? = inconclusive; · = no result given.

SMILES	TsaE inh	Bst PK mod
COc1ccc(N2CCN(CC(=O)Nc3c(C)cc(C)cc3C)CC2)cc1	i	>57
CCCc1ccc(OCCNC(=O)CC)cc1	i	>57
O=C(O)c1cccc(CSc2ncccn2)c1	i	>57
O=C(c1csnn1)N1CCC2(CC1)CCN(c1cccc(-c3ccccc3)c1)CC2	i	·
Cc1nnc(SCc2cnc(-c3ccc(C(C)C)cc3)s2)n1C	i	0.559*
CC(=O)NCCC(=O)Nc1ccc(C)c(F)c1	i	·
CO[C@]1(NC(=O)Cc2cccs2)C(=O)N2C(C(=O)O)=C(COC(N)=O)CS[C@H]21	i	·
O=C1COc2cccnc2N1	i	>57
COc1ccc(S(=O)(=O)Nc2cc(C(=O)NCCC(C)C)ccc2N2CCOCC2)cc1	i	>57
CCc1nnc(NC(=O)CSc2nnc3ncccn23)s1	i	>57
COc1ccc2[nH]cc(CCNc3ncncc3-c3ccccc3OC)c2c1	i	·
O=C(O)c1cccc(NS(=O)(=O)c2ccc(Cl)c(C(=O)O)c2)c1	i	·
CSC(=O)NC12CC3CC(CC(C)(C3)C1)C2	i	·
c1ccc2c(c1)CCN(c1nc3ccccc3n3cnnc13)C2	i	·
CCCCCCc1ccc(-c2ccc(C#N)cc2)cc1	i	·

Entries of single compounds from above. Values in the order: TsaE inh	Bst PK mod
Listed for O=C(O)c1cccc(NS(=O)(=O)c2ccc(Cl)c(C(=O)O)c2)c1 → i	·
Listed for CC(=O)NCCC(=O)Nc1ccc(C)c(F)c1 → i	·
Listed for CCc1nnc(NC(=O)CSc2nnc3ncccn23)s1 → i	>57
Listed for O=C(c1csnn1)N1CCC2(CC1)CCN(c1cccc(-c3ccccc3)c1)CC2 → i	·

Next part.
SMILES	TsaE inh	Bst PK mod
CCOc1ccc(S(=O)(=O)Nc2cccnc2)cc1	i	>57
O=C(O)c1cc(-c2ccncc2)nc2ccc(F)cc12	i	>57
CCOC(=O)Cn1c(C)nc2c(C(=O)OCC)sc(C)c2c1=O	i	·
COc1cccc(OC)c1C(=O)N1CCN(Cc2ccc3c(c2)OCO3)CC1	i	>57
N#CCCn1c(=O)c(-c2ccccc2)nc2cnc(N3CCNCC3)nc21	i	·
CCCCn1c(=S)[nH]c2c(oc3ccc(Cl)cc32)c1=O	i	>57
O=C(COC(=O)c1cccs1)NCc1ccc2c(c1)OCO2	i	>57
Cc1sc(NC(=O)c2ccccc2)c(C(=O)N2CCN(C)CC2)c1C	i	>57
COC(=O)[C@@H]1C[C@H]1[C@@H](N)c1ccccc1	i	·
Cc1occc1-c1nnc(SCC(=O)NCC2CCCO2)n1C (centres undefined)	i	>57
Cc1cccc(NCc2ccccc2O)n1	i	>57
Cc1nccn1CCc1n[nH]c(=S)n1Cc1ccccc1	i	>57
CCN(CC)CCNC(=O)C(C(=O)c1ccccc1)n1ccccc1=O (centres undefined)	i	>57
Cc1ccsc1C(=O)OCC(=O)c1cc(C)n(CC2CCCO2)c1C (centres undefined)	i	0.617*
CC1=C(C(N)=O)C(c2ccc(Cl)cc2Cl)n2ncnc2N1 (centres undefined)	i	>57
O=C(OCc1cc2ccccc2[nH]c1=O)c1cccnc1	i	>57
O=C(Nc1ccc(O)cc1)C1CCCN1S(=O)(=O)c1ccc(F)cc1 (centres undefined)	i	·
CCCC(=O)Nc1cc(-c2nn(C)c(=O)c3ccccc23)ccc1N1CCCCC1	i	>57
c1ccc(CC2CCN(c3nc4ccccc4n4nnnc34)CC2)cc1	i	>57
CCCNC(=O)c1ccccc1NS(=O)(=O)c1ccc2c(c1)OCCO2	i	>57
CCN(Cc1cc2ccccc2[nH]c1=O)C(=O)c1cccnc1	i	>57
CN1CCc2c(sc3c2c(=O)n(-c2ccccc2)c2nncn32)C1	i	>57
COc1nc(Nc2cccc(C)c2)nc(N2CCCCC2)n1	i	>57
Cc1cc(C)nc(NC2=NCC(=O)N2c2cc(Cl)cc(Cl)c2)n1	i	>57
O=C(CN1CCN(c2ncccn2)CC1)N1CCN(C(c2ccccc2)c2ccccc2)CC1	i	>57
CCCCNC(=O)C(C#N)c1nc2ccccc2nc1N1CCN(Cc2ccc3c(c2)OCO3)CC1 (centres undefined)	·	>25.6
Cc1cnn(-c2cc(Oc3ccccc3)ncn2)c1	i	>57
O=C(c1ccco1)N1CCN(CC(=O)N(C2CCCCC2)C2CCS(=O)(=O)C2)CC1 (centres undefined)	i	>57
COCCn1c(=O)c(-c2ccccc2)nc2cnc(Nc3ccccc3)nc21	i	·
CCOC(=O)Cc1nnc(NC(=O)c2ccco2)s1	i	>57
COCC(=O)N1CCC2(CC1)CCN(C(=O)Nc1ccc(OC)cc1)CC2	i	·
CCOC(=O)C1=C(C)OC(N)=C(C#N)C1c1ccc(OC)c(C)c1OC (centres undefined)	i	·
CN(C)CCCN1C(=O)CSC1c1ccccc1 (centres undefined)	i	·
COC(=O)C1(Cc2ccccc2)C=C2C(=C(C)C(=O)C2C)CN1 (centres undefined)	i	·
N=c1c2c3c(sc2ncn1CCCN1CCOCC1)CCCCC3	i	>57
CCOC(=O)C1Cn2c(nc3c(c2=O)C(C)(C)Cc2ccccc2-3)S1 (centres undefined)	i	·
CC(Oc1ccccc1F)C(=O)NCCN1CCCCC1 (centres undefined)	i	·
Nc1ccccc1OCCOCCOc1ccccc1N	i	>57
CCOc1cc(NC(=O)c2ccco2)c(OCC)cc1NC(=O)c1cc(OC)c(OC)c(OC)c1	i	>57
CCOC(=O)C(CC)n1cnc2c(nnn2-c2ccc(OC)cc2)c1=O (centres undefined)	i	>57
O=C(c1ccc2ccccc2c1)N1CCN(c2ccc(O)cc2)CC1	i	?
COc1cc(Br)c(S(=O)(=O)Nc2c(C)n(C)n(-c3ccccc3)c2=O)cc1OC	i	>57
O=C(O)CSc1ncccc1[N+](=O)[O-]	i	·
Cc1ccc(-n2c(=O)cc(N3CCC(C)CC3)[nH]c2=O)cc1	i	>57
CN1CCN(CCC=C2c3ccccc3Sc3ccc(S(=O)(=O)N(C)C)cc32)CC1	i	·
O=C(COc1ccc(S(=O)(=O)N2CCCC2)cc1Cl)NCc1ccc2c(c1)OCO2	i	>57
COc1ccccc1C(=O)N1CCN(Cc2ccc3c(c2)OCO3)CC1	·	>25.6
O=C(O)c1ccnc(C(=O)O)c1	·	>25.6
O=C(O)c1cccc(S(=O)(=O)Nc2ccccc2Cl)c1	i	>57
CCn1cc(Br)c(C(=O)NC(C)c2ccccc2)n1 (centres undefined)	i	>57
Cc1c(O)ccc2c3c(c(=O)oc12)CCCC3	i	?
CN1CCN(c2ccncc2S(=O)(=O)N2CCN(C)CC2)CC1	i	·
Cc1ccc(-n2c(SCC(=O)NCc3ccco3)nc3sc(C)c(C)c3c2=O)cc1	i	>57
Nc1nnc(SCCOc2ccccc2)s1	i	>57
CCN(CCCCN1C(=O)c2ccccc2C1=O)c1ccc2c(c1)C(=O)N(C)C2=O	i	>57
O=c1c(-c2ccc(F)cc2)nc2cnc(Oc3ccccc3)nc2n1Cc1cccs1	i	·
CC1(CC(=O)O)SC(=O)NC1=O (centres undefined)	i	>57
CS(=O)(=O)N(CC(=O)N1CCN(c2ccccc2F)CC1)c1cc(C(F)(F)F)ccc1Cl	i	·
CCCC(=O)N1CCN(C2=NS(=O)(=O)c3ccccc32)CC1	i	·
Cc1ccc2c(c1)-c1cc(C)nn1C(c1sccc1C)N2 (centres undefined)	i	10.6*
(list continues)
SMILES	TsaE inh	Bst PK mod
Cn1cccc1Cc1nnc(SCC(=O)N2CCCCCC2)n1CCc1ccccc1	i	·
CC12CCC(C(=O)N3CCN(Cc4ccccc4)CC3)(OC1=O)C2(C)C (centres undefined)	i	>57
CN(C)c1ccc(-c2nc(N(C)C)c3ccccc3n2)cc1	i	·
O=C(NCc1ccco1)c1cnccn1	i	·
NCCCCCCN	i	·
CCCCCSc1nnc2c(n1)OC(c1cccn1C)N(C(C)=O)c1ccccc1-2 (centres undefined)	i	>57
CCN(Cc1ccccc1)C(=O)CCCOc1ccccc1	i	·
COc1ccc2nc(CC(C)(C)CC(=O)O)c[n+]([O-])c2c1	i	>57
C/C(=N/O)[C@@H]1C[C@H](CC(=O)O)C1(C)C	i	·
CN(Cc1cccs1)C(=O)CCc1ccc(S(=O)(=O)N2CCOCC2)cc1	i	>57
CCN(CC)C(=O)CSc1nc2ccccc2c(=O)[nH]1	i	>57
CCCCCn1c(NCc2ccco2)nc2ccccc21	i	·
COc1ccc(Cl)cc1NC(=O)CSc1nc(N2CCCCC2)nc(N2CCCCC2)n1	i	>57
Cc1c(C(=O)Nc2ccc3oc(-c4cccnc4)nc3c2)oc2ccccc12	i	>57
COC(=O)C1=C(C)NC(=O)CC1c1cccc(Cl)c1Cl (centres undefined)	i	·

Molecules from the list above with fluorine (6):
SMILES	TsaE inh	Bst PK mod
CC(=O)NCCC(=O)Nc1ccc(C)c(F)c1	i	·
O=C(O)c1cc(-c2ccncc2)nc2ccc(F)cc12	i	>57
O=C(Nc1ccc(O)cc1)C1CCCN1S(=O)(=O)c1ccc(F)cc1 (centres undefined)	i	·
CC(Oc1ccccc1F)C(=O)NCCN1CCCCC1 (centres undefined)	i	·
O=c1c(-c2ccc(F)cc2)nc2cnc(Oc3ccccc3)nc2n1Cc1cccs1	i	·
CS(=O)(=O)N(CC(=O)N1CCN(c2ccccc2F)CC1)c1cc(C(F)(F)F)ccc1Cl	i	·

Further records follow.
SMILES	TsaE inh	Bst PK mod
CN1CCN(C(=O)c2c(NC(=O)c3ccco3)sc3c2CCC(C(C)(C)C)C3)CC1 (centres undefined)	i	·
CC12CN3CC(=O)N4CC5(C)CN(CC(C)(C4)C5=O)C(=O)CN(C1)CC(C)(C3)C2=O	·	>25.6
CCC(C)NC(=O)c1cn(CC)c2ccc(S(=O)(=O)N(C)C)cc2c1=O (centres undefined)	i	·
Cc1cc(=O)[nH]c(SCC2(O)C3CC4CC(C3)CC2C4)n1 (centres undefined)	i	>57
COCCN(CCOC)c1nc(C)nc2c1nc(-c1ccccc1)n2CCN1CCOCC1	i	·
CCOc1ccc(C(=O)NC2CCN(S(=O)(=O)CC)CC2)cc1	i	>57
C=CC(=C)CCC=C(C)C	i	·
Cc1ccc(OCCNS(=O)(=O)c2cccs2)cc1	i	>57
c1ccc(Cn2nnnc2CN2CCCC2)cc1	i	>57
COc1ccc(C(=O)Nc2cccc(C)c2)cc1S(=O)(=O)N1CCOCC1	i	>57
COc1ccc(CC(=O)Nc2ccc(-c3nnc(-c4ccc(C)cc4)o3)cc2)cc1	i	>57
Cc1ccccc1NC(=O)C1CCCN(S(=O)(=O)c2cccc3cccnc23)C1 (centres undefined)	i	·
COc1nc(N(C)S(=O)(=O)c2ccc(C)cc2)nc(C)c1Cl	·	>25.6
COC(=O)c1c(NC(=O)C2CCC2)sc(C(=O)N(C)C)c1C	i	>57
COCCCn1c(SCC(=O)Nc2ccc(C(=O)OC)cc2)nc2ccccc2c1=O	i	>57
Cc1nn(-c2ccccc2)c(C)c1NS(=O)(=O)c1ccccc1	i	>57
COc1ccccc1-n1c(-c2cccnc2)n[nH]c1=S	i	>57
C=CCN1C(=O)C(O)(CC(=O)c2ccccc2)c2ccccc21 (centres undefined)	i	>57
COc1ccc(-c2nc(C#N)c(NCc3ccc(F)cc3)o2)cc1OC	i	>57
COc1ccc(Br)cc1C1NC(=O)c2c(sc3c2CCN(C)C3)N1 (centres undefined)	i	>57
O=S(=O)(c1ccc(Cl)cc1)N1CCSC1c1ccco1 (centres undefined)	i	·
CCOC(=O)c1cccc(NC(=O)C2CCCN2S(=O)(=O)c2cccc3cccnc23)c1 (centres undefined)	i	·
O=C(COC(=O)CN1C(=O)c2ccccc2C1=O)Nc1ncc(Cl)cc1Cl	i	?
CC(C)(C)NC(=O)C(c1ccco1)N(C(=O)c1csnn1)c1ccccc1 (centres undefined)	i	>57
O=C(CSc1nnc(Cc2ccccc2)o1)NCCc1ccccc1	i	>57
Cc1ccc2[nH]c3c(c2c1)CN(C(=O)CN1CCN(c2ccccn2)CC1)CC3	·	>25.6
Cc1nnc(SCc2nnc(-c3ccccc3Br)o2)n1-c1ccccc1	i	>57
Cc1cccc(OCCNC(=O)c2ncn[nH]2)c1	i	·
COc1ccc(-c2noc(CCC(=O)N(C)c3cccc(C)c3)n2)cc1	i	>57
COc1ccc(C)cc1NC(=O)c1[nH]c(C)c(C(C)=O)c1C	i	>57
Cc1cc(C(=O)OCc2nc3ccccc3s2)c(C)o1	i	?
O=c1cc(-c2ccccc2)oc2ccccc12	i	·
Cc1cc2oc(=O)cc(CN3CCN(Cc4ccccc4)CC3)c2cc1Cl	i	>57
CCOCCn1c(CN2CCC(Cc3ccccc3)CC2)nc2c1c(=O)n(C)c(=O)n2C	i	>57
CCOC(=O)C1=Nc2ccccc2C1=[N+]=[N-]	·	>11.4
O=C1c2ccccc2C(=O)N1CCn1c(=O)oc2ccccc21	i	>57
Cc1ccc(S(=O)(=O)NCCNC(=O)c2ccccc2)cc1	i	>57
Cc1cc(C)nc(N(C#N)CCOc2ccccc2)n1	i	>57
CCOC(=O)CNC(=O)c1ccc2[nH]c3c(c2c1)CCCC3	i	·
CCOC(=O)C1CCCN(C(=O)Nc2cccc(Cl)c2)C1 (centres undefined)	i	>57
O=C(Cn1nnc(-c2ccc(CN3CCOCC3)cc2)n1)N1CCCc2ccccc21	i	5.56*
CCOc1ccc(-c2nnc3sc(-c4c(OC)cccc4OC)nn23)cc1	·	>25.6

Some of the compounds tested. The share of hits here may be higher or lower than overall.
